Source: PubChem (National Center for Advancing Translational Sciences (NCATS))
HPGD block – inhibitors of human 15-hydroxyprostaglandin dehydrogenase (HPGD). P15428. purified HPGD, NADH fluorescence kinetic, PGE2 substrate. Potency, µM, without a hit: top-dose activity change, negative = inhibition, most hits filed as inhibitors. 150,000 compounds, 4.3% hits. AID 894; active = well fitted inhibition curve with a large enough effect (not every such curve was filed as active); inconclusive = small, poorly fitted or top-dose-only effect, or another doubt; inactive = no such curve, though single readings can be large or run the other way;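 further: top concentration of the series not given in the record; plate controls included wells without enzyme; inactives centre near -10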
Target sequence (P15428 whole entry, looked up): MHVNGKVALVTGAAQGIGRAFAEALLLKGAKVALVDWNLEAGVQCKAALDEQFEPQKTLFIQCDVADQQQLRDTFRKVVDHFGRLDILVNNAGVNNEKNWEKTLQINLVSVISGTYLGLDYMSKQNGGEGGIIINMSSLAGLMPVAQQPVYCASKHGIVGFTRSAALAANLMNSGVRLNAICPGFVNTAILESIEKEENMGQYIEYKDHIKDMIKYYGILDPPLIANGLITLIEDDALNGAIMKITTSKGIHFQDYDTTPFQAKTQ
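NADH formation kinetics: reaction with 30 uM PGE2 and 1 mM NAD+ (final), 20 nM enzyme, Tris-HCl pH 8 with Tween 20, after 15 min compound preincubation at room temperature. Fluorescence change, last versus first of five reads.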
* hit, by the source's call; ? = inconclusive. On the % scale 0 is the no-effect control and ±100 the full control effect; potency means the concentration at half of the fitted maximal effect.

HPGD block | mol
-6.4% | Cc1[nH]c(=O)[nH]c(=O)c1S(=O)(=O)N1CCC(C(=O)N2CCN(Cc3ccccc3)CC2)CC1
-8.7% | C=CCN=c1sc(C(=O)OC)cc(=O)n1CC=C
-13.8% | c1ccc(COc2ccc(OCCN3CCCCC3)cc2)cc1
-11.6% | O=C1C2C3C=CC(C2C(=O)N1CCCO)C1C2C(=O)N(CCCO)C(=O)C2C31 (centres undefined)
-2.5% | O=C(Cn1c(=O)oc2cc(S(=O)(=O)N3CCOCC3)ccc21)N1CCc2ccccc2C1
-14.1% | COc1cccc(/C=N/NC(=O)CN2CC(c3ccccc3)CC2=O)c1O (centres undefined)
-10.3% | COc1ccccc1C(=O)NNC(=S)NC(=O)c1sc2ccccc2c1Cl
? | O=C(Nc1ccccc1N1CCN(C(=O)c2ccccc2)CC1)c1cc2ccccc2o1
2.7% | Cc1ccc(S(=O)(=O)N2CCC(=O)N(CCOCc3ccc(Cl)cc3)CC2)cc1
? | O=C(N/N=C/c1cccc([N+](=O)[O-])c1O)c1cccs1
-3.0% | CCOc1ccc(NS(=O)(=O)c2cnc(Cl)c(Cl)c2)cc1
? | Cc1cccc(NC(=O)c2ccc3ccccc3n2)n1
-4.3% | COc1ccc(Nc2nc(NCc3ccco3)nc(N/N=C/c3ccccc3Cl)n2)cc1
-1.9% | CN(C)S(=O)(=O)Oc1ccc(Cl)cc1C(=O)Nc1cccc(C(F)(F)F)c1
-4.9% | C=CCN=C1SC(CC)C(=O)N1S(=O)(=O)c1ccc(C)cc1 (centres undefined)
-6.2% | CCN1CCN(C(c2cccs2)C(C)NC(=O)NC2CCCCC2)CC1 (centres undefined)
-6.7% | CCOc1ccc(-c2nc(-c3ccc(OC)c(OC)c3)no2)cc1OCC
-5.8% | O=C(CN(C(=O)Cn1nnc(-c2cccs2)n1)c1ccc2c(c1)OCCO2)NC1CCCCC1
-8.7% | Cc1ccc(NC2=C(Cl)C(=O)N(C3CCCCC3)C2=O)cc1
-10.4% | Cc1csc(SCC(=O)c2cc(C)n(Cc3cccs3)c2C)n1
-29.1% | Nc1cc(N)nc(SCC(=O)c2ccccc2)n1
-29.0% | Cc1ccccc1NC(=O)C1C2/C=C\CCCCC21 (centres undefined)
4.8% | Cc1ccc2c(c1)cc(CN(CCc1ccccc1)C(=O)N1CCOCC1)c1nnnn12
-7.5% | Cc1ccc(C)c(N2CCN(C(=O)c3ccc(CS(=O)(=O)c4ccccc4C)o3)CC2)c1
-9.4% | COc1ccc(OC)c([C@H](O)CNC(=O)CN)c1

Retrieved by structure from the entries so far (two):
HPGD block | mol
? | Cc1cccc(NC(=O)c2ccc3ccccc3n2)n1
-8.7% | C=CCN=c1sc(C(=O)OC)cc(=O)n1CC=C

Returning to the listing, starting three compounds before the break.
HPGD block | mol
4.8% | Cc1ccc2c(c1)cc(CN(CCc1ccccc1)C(=O)N1CCOCC1)c1nnnn12
-7.5% | Cc1ccc(C)c(N2CCN(C(=O)c3ccc(CS(=O)(=O)c4ccccc4C)o3)CC2)c1
-9.4% | COc1ccc(OC)c([C@H](O)CNC(=O)CN)c1
? | Cc1ccc(-n2c(=O)c3sccc3n(Cc3cc(=O)n4ccccc4n3)c2=O)cc1F
1µM* | Cc1ccc2nc(SCc3nnc(-c4ccccc4[N+](=O)[O-])o3)c(C#N)cc2c1
? | O=C(NCc1ccco1)c1ccc(OCC2CCCO2)cc1 (centres undefined)
-28.2% | O=C(Nc1ccc2oc(-c3cccnc3)nc2c1)c1cccnc1
-6.3% | Cc1ccc(NS(=O)(=O)c2ccc(N3C(=O)CCC3=O)cc2)cc1
-8.0% | COC(=O)c1cn(-c2ccc(Cl)cc2)c(=O)c2ccccc12
-5.7% | CCc1cc2c(=O)c(-c3nc4ccccc4[nH]3)coc2cc1OC(=O)N1CCOCC1
0.9% | O=C(CC12CC3CC(CC(C3)C1)C2)N1CCOCC1
-6.6% | CCN(CC)CCCN1C=C2C(=O)C(C)(OC(=O)C3CCCC3)C(=O)C(c3ccccc3)=C2C=C1CCCC(=O)OC (centres undefined)
1.4% | Fc1ccc(OCc2nn3cnnc3s2)cc1
? | COc1ccc(/C=C/C(=O)OCC(=O)NCc2cccs2)cc1OC
-12.6% | N/C(=N\OC(=O)CCCc1ccccc1)c1ccccn1
-12.5% | COc1ccc2c(c1)C(=O)[C@H](OC(=O)NS(=O)(=O)c1ccc(F)cc1)[C@@H](c1ccc(OC)c(Br)c1)O2
-14.7% | CC/C=C\C/C=C\C/C=C\C/C=C\C/C=C\C/C=C\CCC(=O)NCCc1ccc(O)c(O)c1
-13.7% | COc1ccc(CN2CC(C(=O)NCCCOC(C)C)CC2=O)cc1 (centres undefined)
-1.3% | COc1ccc(/C=C/C(=O)O)cc1COc1cccc(C)c1
-12.5% | CCOC(=O)N1CCC(N2C(=O)c3ccc(C(=O)NCc4ccco4)cc3C2=O)CC1
-10.7% | CC(=O)Nc1cnn(Cc2ccc(Br)cc2)c1
20µM* | CCOC(=O)CSc1nc2c(c(=O)[nH]c(=O)n2C)n1C/C=C(/C)Cl
-12.0% | CCNc1nc(NCC)nc(OCCOC(=O)c2ccccc2)n1
-16.3% | CCCCn1nnc(NC(=O)c2ccco2)n1
-20.4% | COc1ccc(OC)c(NC(=O)CSC2=C(C#N)C(c3ccco3)C3=C(CCCC3=O)N2)c1 (centres undefined)
-7.7% | CCCC[C@@]1(C2CCCC2)Cc2cc(OCC(=O)O)c(Cl)c(Cl)c2C1=O
0.8% | COCCCNC(=O)CC(NS(=O)(=O)c1ccc(OC)cc1)c1ccc(OC)cc1 (centres undefined)
-4.2% | CCCN(CCC)CCNc1c(N2CCN(C(=O)OCC)CC2)c(=O)c1=O
-17.5% | O=C(NOC(=O)c1ccccc1Cl)c1cccs1
-2.7% | COc1ccc(NC(=O)CC(C(=O)O)N2CCCCC2)cc1 (centres undefined)
-5.4% | COc1cc(OC)cc(C(=O)NC2CC3CCC(C2)N3Cc2ccco2)c1 (centres undefined)
-10.1% | Cc1ccc(SCC2=NNC(=O)C2)cc1
-1.7% | CCOC(=O)C(CCC#N)(CCC#N)C(=O)OCC
-7.1% | Cc1ccc(S(=O)(=O)NC(=O)N2CCC(C)CC2)cc1
17.8µM* | O=C(c1cccc(Br)c1)N1CCCC1
-9.5% | COc1ccc(CCNc2ncnc3[nH]ncc23)cc1OC
-7.4% | c1csc(C(c2nnnn2C2CCCC2)N2CCOCC2)c1 (centres undefined)
-2.3% | COc1ccc(-n2c(SCC#N)nnc2-c2cccnc2)cc1
-12.6% | Cc1cccc(Nc2ccccc2)c1
-15.8% | COC(=O)c1c(NC(=O)CSc2nnc3ccccn23)sc2c1CCC2
-6.9% | CCOC(C)OCC
? | O=[N+]([O-])c1cc(/C=N/Nc2nc3ccccc3[nH]2)c(O)cc1O
-2.4% | CCn1c(C(Cc2ccccc2)NC(=O)COC)nc2ccccc21 (centres undefined)
-1.1% | CC(C)(C)OC(=O)N1CCOCCOCCNCCOCCOCC1
-20.9% | CCOc1ccc(C2=Nc3ccccc3C(c3ccc(N4CCOCC4)cc3)=NN2)cc1
-3.9% | CCCC(C)NC(=O)c1cc(C(=O)OC)cc([N+](=O)[O-])c1 (centres undefined)
-8.4% | CC(OC(=O)c1ccccc1Br)C(=O)Nc1nc(-c2cccc([N+](=O)[O-])c2)cs1 (centres undefined)
-13.6% | Cn1c(CN2CCCCC2)nc2cc(NS(=O)(=O)c3ccc(Cl)cc3)ccc21
-10.1% | Cc1ccc(-c2csc(=S)n2CC(=O)OCC(=O)NCc2ccco2)cc1
-10.3% | CC(=O)Cc1nsc(NC(=O)c2cn(-c3ccccc3)nc2-c2ccc(Br)cc2)n1
35.5µM* | O=C(NC1CCCC1)c1cnc2n(c1=O)CCS2
? | Cc1ccnc(N2CCC(C(=O)NNC(=O)c3ccccc3C)CC2)n1
-14.1% | COc1cccc(CSc2nc3ccccc3[nH]2)c1

Some of these compounds in order of SMILES length, highest first:
HPGD block | mol
-10.3% | CC(=O)Cc1nsc(NC(=O)c2cn(-c3ccccc3)nc2-c2ccc(Br)cc2)n1
-10.1% | Cc1ccc(-c2csc(=S)n2CC(=O)OCC(=O)NCc2ccco2)cc1
-15.8% | COC(=O)c1c(NC(=O)CSc2nnc3ccccn23)sc2c1CCC2
-2.4% | CCn1c(C(Cc2ccccc2)NC(=O)COC)nc2ccccc21 (centres undefined)
-7.1% | Cc1ccc(S(=O)(=O)NC(=O)N2CCC(C)CC2)cc1
-1.1% | CC(C)(C)OC(=O)N1CCOCCOCCNCCOCCOCC1
-10.1% | Cc1ccc(SCC2=NNC(=O)C2)cc1

Additional results:
HPGD block | mol
? | Cc1ccc2nc(SCc3ccc([N+](=O)[O-])cc3)[nH]c2c1
15.8µM* | O=C(NCc1cccs1)c1ccc(N2CCCCC2)nc1
-10.6% | C=CCN(C(C)=O)C1CC(=O)N(c2ccc(OCCC)cc2)C1=O (centres undefined)
-10.6% | O=C(CSc1ccc(Cl)cc1)Nn1cnnc1
-0.2% | CCOc1ccc(C(=O)Nc2cccc(SC)c2)cc1
-6.5% | O=C(NCC(=O)N(CCN1CCOCC1)C(C(=O)NC1CCCC1)c1cccs1)c1ccco1 (centres undefined)
-9.9% | N#Cc1ccc(CN2CCCC3(CCN(C(=O)c4csnn4)CC3)C2)cc1
-4.6% | CCCCOC(=O)CCc1c(C)[nH]c(=S)[nH]c1=O
-11.7% | Cc1noc(C)c1S(=O)(=O)N1CCCC(C(=O)NCCc2ccccc2)C1 (centres undefined)
-20.2% | Cc1cc(C(F)F)n2ncc(C(=O)NCc3ccccc3)c2n1
-5.2% | COc1cc(C(=O)n2nc(C)cc2C)cc(OC)c1OC
0.0% | Cn1c(SCC(=O)NC2CC2)nnc1-c1ccco1
-6.6% | COc1ccc(OC)c(C2NC(=O)NC(C)=C2C(=O)Nc2ccc(C)cc2)c1 (centres undefined)
-17.9% | CCCOC(=O)c1ccc(Oc2cn[nH]c2-c2ccc(OCC)cc2O)cc1
-16.0% | CC1=C(C(=O)OCc2ccccc2)C(c2cccnc2)n2nnnc2N1 (centres undefined)
-11.7% | CC(Sc1nc2ccc(Br)cc2[nH]1)C(=O)O (centres undefined)
-6.0% | COc1ccc(OC)c(NC(=O)C(=O)N/N=C/c2ccccc2[N+](=O)[O-])c1
-3.2% | CCOC(=O)COc1ccc(S(=O)(=O)c2ccc(OCC(=O)OCC)cc2)cc1
-12.1% | CCN(CC)C(=O)CSc1nnc(-c2cccnc2)n1CCc1ccccc1
-16.8% | CCNC(=S)N/N=C/c1cccc(C)c1
-9.8% | CCCOc1ccc(C2NC(=S)NC(C)=C2C(=O)c2ccccc2)cc1OC (centres undefined)
-12.6% | O=C(OCc1c(Cl)cccc1Cl)c1cnccn1
-3.9% | COC(=O)CSc1nnnn1-c1ccccc1
31.6µM* | CCCSC1=C(C#N)C(c2ccc(Cl)cc2Cl)CC(=O)N1 (centres undefined)
-18.5% | COc1ccc(OCc2nc(N)nc(Nc3ccccc3OC)n2)cc1
-20.9% | COc1ccccc1NC(=S)NC(NC(=O)c1ccco1)C(Cl)(Cl)Cl (centres undefined)
-4.5% | CC(c1ccccc1)N1C(=O)NC(NC(=O)C(C)(C)C)(C(F)(F)F)C1=O (centres undefined)
-12.0% | C=CCc1ccc(OC(=O)c2ccccc2)c(OC)c1
-5.4% | O=C(Nc1ccc(Br)cc1)c1ccc(N2C(=O)C3CC=C(Cl)CC3C2=O)cc1 (centres undefined)
-10.8% | O=C(N/N=C/c1ccc2c(c1)OCO2)c1cccs1
-4.4% | O=C(NC(=O)c1ccccc1)OCC(F)(F)F
-2.5% | O=C(N/N=C/c1ccsc1)c1cc(O)cc(O)c1
-14.2% | COc1ccccc1Cc1nc(-c2ccc(Br)o2)no1
-7.6% | Cc1cccc(N2C(=O)NC3(CCCCC3)C2=O)c1
31.6µM* | O=C(c1cc2nc(C3CC3)cc(C(F)F)n2n1)N1CCOCC1
-34.6% | COC(=O)CC1=C(C(=O)OC)C(c2cccs2)C(C#N)=C(N)O1 (centres undefined)
-5.2% | CCOC(=O)c1c(C)nc(-c2ccccc2)nc1NC(=O)C(C)C
-8.1% | O=C(N/N=C/c1ccc2c(c1)OCO2)c1ccc(Cn2cc([N+](=O)[O-])cn2)o1
-2.3% | C=CC(=O)CC
-5.3% | Cc1cccc(CSc2ncnc3c2cnn3Cc2ccccc2)c1
-22.6% | CCC(C)(C)C1CCC(=NNC(=O)c2ccoc2C)CC1 (centres undefined)
-21.0% | CCC1CCCCN1S(=O)(=O)c1ccc(S(=O)(=O)N2CCN(S(=O)(=O)CC)CC2)cc1 (centres undefined)
-22.9% | O=[N+]([O-])c1cccc2ccc(/C=C/c3ccc(C(F)(F)F)cc3)nc12
-12.0% | CCCn1c(CN(C)Cc2ccccc2)nc2c1c(=O)n(C)c(=O)n2C
-23.4% | CCCOc1cccc(-c2cc(-c3n[nH]c(=S)n3CC)c3ccccc3n2)c1
-3.2% | O=C(COC(=O)CCc1c[nH]c2ccccc12)NCc1ccccc1
? | COc1c(Cl)cc(Cl)cc1/C=N/n1cnnc1
-8.0% | COc1cc2c(cc1OC)C(Nc1ccc(S(N)(=O)=O)cc1)=NC(C)(C)C2
-8.4% | O=C(NCCc1ccccn1)c1n[nH]c(=O)c2ccccc12
-17.1% | COc1cc(/C=C(\C#N)c2nc3c(s2)CC(C)CC3)ccc1O (centres undefined)
-13.4% | CCOC(=O)CN(C#N)c1nc(C)cc(C)n1
-12.2% | CC1=NNC(=O)C1CCC(=O)N/N=C(/C)c1ccc([N+](=O)[O-])cc1 (centres undefined)

An excerpt; the hit share may differ from the screen's.
